RGS16-Gao = modulates binding between human RGS16 and Galphao | bead-based flow cytometry RGS16-Galphao binding, fluorescence; actives lie on both sides | binding response (% of control), % at 10 µM | hit rate 0.38% among 220,000;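 active = below 25% or above 175%, edge rows of some plates excepted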;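 note: Galphao activated by GDP with aluminum fluoride before binding; 100% = wells without compound and 0% = beads without RGS; some results beyond the cut were filed as inactive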
Target sequence (O15492 whole entry, looked up): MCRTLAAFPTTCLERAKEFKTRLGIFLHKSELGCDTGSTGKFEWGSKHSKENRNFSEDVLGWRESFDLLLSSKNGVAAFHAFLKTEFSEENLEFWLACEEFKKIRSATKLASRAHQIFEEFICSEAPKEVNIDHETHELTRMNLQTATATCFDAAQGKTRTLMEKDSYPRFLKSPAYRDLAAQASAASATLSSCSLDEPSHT
Target sequence (P09471 whole entry, looked up): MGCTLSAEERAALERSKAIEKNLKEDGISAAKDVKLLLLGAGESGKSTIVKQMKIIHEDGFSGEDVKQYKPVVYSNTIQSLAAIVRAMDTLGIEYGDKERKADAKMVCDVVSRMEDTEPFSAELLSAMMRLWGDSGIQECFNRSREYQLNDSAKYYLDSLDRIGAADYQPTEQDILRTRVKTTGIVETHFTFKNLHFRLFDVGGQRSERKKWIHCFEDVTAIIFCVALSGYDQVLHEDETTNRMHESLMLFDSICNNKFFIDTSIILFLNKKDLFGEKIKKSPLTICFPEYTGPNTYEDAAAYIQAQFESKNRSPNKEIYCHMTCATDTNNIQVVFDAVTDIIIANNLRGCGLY
HSV replic up = HSV replication enhancement; hit rate 0.005% among 220,000; maximum fold increase; HSV replication augmentation in cells, fold increase;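 active = peak rise of 1.5-fold or more in the series; inconclusive = self-fluorescent or not available for retest; tested in PC3 cells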;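 note: first round at 10 µM; read as green reporter fluorescence; hits show the peak of a series up to 25 µM; 1 = signal of infected wells without compound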
GALR2 agonist = activates the human galanin receptor 2; O43603; GALR2-expressing cells, agonist activation read-out; activation, %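 (tested at 5 µM)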; hit rate 0.48% among 140,000; AID 803;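 active = above mean plus 3 SD of all compounds, about 5% in these data, not always enough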;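 note: 0% = vehicle buffer wells and 100% = reference agonist at full effect; tested in CHO reporter cells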
Target sequence (O43603 whole entry, looked up): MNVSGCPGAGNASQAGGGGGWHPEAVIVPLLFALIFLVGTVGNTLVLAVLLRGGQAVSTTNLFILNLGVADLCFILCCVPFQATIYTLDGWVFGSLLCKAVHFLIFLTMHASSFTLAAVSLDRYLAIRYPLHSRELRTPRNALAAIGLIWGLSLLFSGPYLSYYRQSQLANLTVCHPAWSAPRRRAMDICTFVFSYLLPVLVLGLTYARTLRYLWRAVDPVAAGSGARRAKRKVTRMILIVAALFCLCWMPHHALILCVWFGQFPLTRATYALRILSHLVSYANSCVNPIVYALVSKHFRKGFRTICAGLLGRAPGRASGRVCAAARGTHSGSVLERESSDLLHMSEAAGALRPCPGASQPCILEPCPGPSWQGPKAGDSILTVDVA
Insulin prom inh = TRM-6 insulin promoter activity inhibition; TRM-6 cells (human fetal islet line), insulin promoter-eGFP reporter, imaging; reporter expression induced with tamoxifen; hit rate 0.9% among 130,000; AID 1273; inhibition, % at 2 µM;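 active = inhibition above the mean plus 3 SD, with well images judged a real hit on visual review, cut at about 60% in these data, passing the limit was not always enough; inconclusive = inhibition over the cutoff but images rejected on review; inactive = inhibition not above the cutoff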
PKD1 inh = PKD1 (human) kinase inhibition; PKD1 kinase fluorescence polarization assay; inhibition, %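 (about 10 µM by stock and volumes)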; hit rate 0.056% among 200,000; AID 797;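 active = inhibition of 50% or more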;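 note: controls were vehicle for no effect and a reference inhibitor for full effect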
Insulin prom inh cell count = second read-out of Insulin prom inh, no call of its own (marks repeat the call); normalized cell count, %; measured here: cell count, toxicity; reference of the scale not given here;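 cells exposed to compound for 48 h; stained nuclei by imaging scaled within each plate; lower means fewer cells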
HSV replic up primary fold = also measured in HSV replic up; calls as there; fold increase; compound at 10 µM; measured here: primary screen fold increase 10 uM; tested in PC3 cells;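 GFP signal in the first replicate; 1 = infected wells without compound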
The depositor's hits bear a star; i = inactive; ? = inconclusive; . = not tested or not shown.

SMILES	RGS16-Gao	HSV replic up	HSV replic up primary fold	GALR2 agonist	Insulin prom inh	Insulin prom inh cell count	PKD1 inh
CSc1nc2[nH]ncc2c(=O)[nH]1	104	i	0.96	-1.2	-40	61	4
CCOC(=O)CSc1nc2cc(C(=O)OC)ccc2c(=O)n1CCN1CCOCC1	124	i	0.81	-1.3	17	147	-1
Clc1cccc(C2=NOC(c3nnc(-c4ccccc4)o3)C2)c1 (configuration not stated)	105	i	0.58	.	.	.	.
Cc1ccc(/C=N/NC(=O)CNC(=O)COc2ccccc2)cc1	97	i	1.3	-1.2	.	.	-8
CCNC(=S)N/N=C/c1sc(N2CCCCC2)nc1-c1cccs1	102	i	1.6	1.5	-12	180	4
O=C(NCCC1=CCCCC1)C(c1ccccc1)c1ccccc1	98	i	1.1	-1.2	7	125	-8
CCC(C)(C)NC(=O)CN(C(=O)c1snc(C(N)=O)c1N)c1ccc2nc(C)sc2c1	107	i	0.75	.	25	110	-1
c1ccc(CNc2nc3ccccc3[nH]2)cc1	106	i	0.81	-0.6	64	116	-13
O=C(C1CCN(S(=O)(=O)c2cccc3nsnc23)CC1)N1CCn2c1nc1ccccc12	87	.	.	1.2	-8	82	8
Cc1cc(C)n(C(=O)c2ccc([N+](=O)[O-])cc2N)n1	95	i	1	.	-44	100	0
CCOC(=O)c1c(NC(=O)/C=C/C(=O)O)sc(C)c1-c1ccc(Cl)cc1	101	i	0.95	.	.	.	-3
CCOC(=O)COc1ccc(S(=O)(=O)NCc2cccnc2)cc1	100	i	0.82	-1.6	50	125	-4
COc1ccccc1C1=NOC(COc2ccc3c(C)cc(=O)oc3c2)C1 (configuration not stated)	98	i	0.71	.	.	.	.
O=C(CSc1nnc(C2COc3ccccc3O2)o1)N1CCCc2ccccc21 (configuration not stated)	106	i	0.91	1.6	24	82	4
Nc1ccc(Nc2ccccc2)c(Cl)c1	96	i	0.75	-3.2	.	.	-9
CCOC(=O)COc1ccccc1/C=C1\NC(=O)NC1=O	105	i	0.88	.	-21	51	-2
CCOC(=O)N/N=C\C=C\c1ccc2c(c1)OCO2	104	i	0.86	0.6	-37	158	0
O=C(COC(=O)C1CCN(S(=O)(=O)c2cccs2)CC1)Nc1ccccc1Br	97	i	0.98	.	27	108	-1
O=C(COc1ccccc1)N1CCN=C1c1ccccc1	102	i	1	-1.5	-43	100	-1
O=C(COC(=O)/C=C/c1cccs1)NC(=O)Cc1ccccc1	74	i	0.93	.	-50	74	-1
O=C(Cn1cnc2ccccc21)NCc1ccccc1	103	i	0.96	-2.9	-46	106	-6
O=c1c(O)c(-c2ccc(O)cc2O)oc2cc(O)cc(O)c12	96	.	.	-0.1	38	148	-3
CC(=O)Nc1ccc(S(=O)(=O)c2ccc(N)cc2)cc1N	102	i	1.1	-3.8	.	.	9
Cc1cc(OC(=O)c2cc(F)c(F)cc2Cl)nc(C)n1	101	i	1	-2.3	30	63	-17
CSCC(O)Cn1[nH]c(=O)c2cc(Cl)c(Cl)cc2c1=O (configuration not stated)	95	i	1	.	.	.	.

Next section; the last three above are carried over.
SMILES	RGS16-Gao	HSV replic up	HSV replic up primary fold	GALR2 agonist	Insulin prom inh	Insulin prom inh cell count	PKD1 inh
CC(=O)Nc1ccc(S(=O)(=O)c2ccc(N)cc2)cc1N	102	i	1.1	-3.8	.	.	9
Cc1cc(OC(=O)c2cc(F)c(F)cc2Cl)nc(C)n1	101	i	1	-2.3	30	63	-17
CSCC(O)Cn1[nH]c(=O)c2cc(Cl)c(Cl)cc2c1=O (configuration not stated)	95	i	1	.	.	.	.
NC(=O)c1ccccc1NC(=O)NC1CCCCC1	84	i	1.1	-2.3	.	.	-9
COCCCn1c(SCC(=O)Nc2ccc3c(c2)OCCO3)nnc1-c1ccoc1C	98	i	1.1	-2.6	.	.	-9
O=C(CSc1ccccc1)NCc1ccccn1	108	i	0.98	-1.7	.	.	-6
O=C(COC(=O)c1cccnc1Nc1ccccc1F)NC1CC1	99	i	0.97	-0.3	10	97	12
COC(=O)Cc1c(C)nc2nc(-c3ccc(Cl)cc3)[nH]n2c1=O	100	i	0.9	-1.0	8	118	-8
O=C(CC1SC(=Nc2ccccc2)N(CCc2ccccn2)C1=O)Nc1ccc(F)cc1 (configuration not stated)	107	i	0.92	-1.9	.	.	-3
CC(C)(C)OC(=O)NCCc1nnc(SCc2ccc(Cl)cc2Cl)o1	116	i	0.88	-2.4	-29	97	0
Cc1cc([N+](=O)[O-])nn1CC(=O)Nc1c(C)n(C)n(-c2ccccc2)c1=O	98	i	0.96	.	13	100	8
COCCOC(=O)C1=C(C)Nc2nc(C)nn2C1c1ccc(F)cc1 (configuration not stated)	100	i	0.87	-1.8	.	.	-1
CN1CCCCc2c1[nH]c1ccccc1c2=O	101	i	0.88	-1.5	-43	130	-1
CCC(C)C(=O)Nc1ncc2c(n1)CC(c1cccs1)CC2=O (configuration not stated)	105	i	0.79	-0.9	32	75	-4
COc1cc(CNc2ccc(CNc3ncn[nH]3)cc2)cc(Cl)c1OCc1ccccc1	116	i	0.9	0.3	.	.	1
N#C/C(=C\c1cccc([N+](=O)[O-])c1)c1nnc2n1CCCCC2	92	i	0.88	0.1	-7	110	1
CNC(=O)C1CCN(C(=O)c2ccc(-c3ccccc3)cc2)CC1	99	i	0.93	-1.4	0	75	-5
N#Cc1c2c(c(Nc3ccc(O)cc3)n3c1nc1ccccc13)CCC2	109	i	0.92	-1.1	.	.	5
COc1ccc(-n2c(Cc3cc(=O)[nH]c(=O)[nH]3)nnc2SCC(=O)N2CCCC2)cc1	50	.	.	-1.6	.	.	-2
O=C(COC(=O)c1ccc(F)cc1F)Nc1ncccn1	101	i	1.3	.	.	.	.
CCOc1ccc(NC(=O)c2ccccc2O)cc1	121	i	0.96	-1.5	-7	130	-1
c1ccc2c(-c3nn[nH]n3)cccc2c1	100	i	1	0.6	.	.	7
Cc1ccc(C)c(NC(=O)CSc2nnc(CCNC(=O)OC(C)(C)C)o2)c1	113	i	0.85	-1.1	-38	61	0
Cc1cccc(N2C(=O)CC(Sc3ccccc3C(=O)O)C2=O)c1 (configuration not stated)	100	i	1.1	-0.3	.	.	5
O=C(NC(=S)NCCN1CCOCC1)c1ccccc1	105	i	0.96	-0.3	.	.	-1
O=C(CC(c1ccccc1)c1cc(Br)ccc1O)N1CCCC1 (configuration not stated)	101	i	1.1	.	0	104	2
Clc1cc(-c2ccc(/C=N/n3cnnc3)o2)ccc1Br	101	i	1	.	.	.	1
COc1ccc(C(=O)Cn2c(NCCO)nc3ccccc32)cc1OC	91	i	0.96	-0.9	87*	128*	-8

Next section
SMILES	RGS16-Gao	HSV replic up	HSV replic up primary fold	GALR2 agonist	Insulin prom inh	Insulin prom inh cell count	PKD1 inh
O=C(Nc1cccc(-c2csc(-c3ccccc3)n2)c1)c1cccs1	102	i	0.82	-3.4	23	70	1
Cn1cc(C(=O)c2ccc(Cl)cc2Cl)cc1C(=O)N/N=C(\N)COc1ccc(F)cc1	109	i	0.96	-1.3	25	100	-5
O=C(N/N=C1/CC2C=CCC12)c1ccco1 (configuration not stated)	95	i	1	-1.2	32	60	-7
O=C(c1ccccc1)c1cccc(NC(=O)c2ccc(Br)o2)c1	151	i	0.99	0.6	-55	128	4
FC(F)(F)c1ccc2c(c1)C1C=CCC1C(c1ccncc1)N2 (configuration not stated)	106	i	1.4	.	47	44	-3
NNC(=O)C1CC1(c1ccccc1)c1ccccc1 (configuration not stated)	103	i	1.1	.	.	.	.
Cc1ccc(S(=O)(=O)N(C)C)cc1NC(=S)NNC(=O)C1CC1	100	i	0.92	0.6	3	141	-3
O=C1[C@H]2[C@@H](C(=O)N1c1cccc3ccccc13)C1(C(=O)c3ccccc3C1=O)N1CCC[C@@H]21	102	i	1.2	-2.4	-23	113	-6
Cc1cc2cc(CNC(=O)c3ccc(S(=O)(=O)N4CCCCC4)cc3)ccc2n1C	94	i	1.1	-2.6	.	.	9
Cc1cccc(NC(=O)CCSc2ccccc2)c1C	98	i	1.1	.	6	77	5
N#C/C(=C\c1cc([N+](=O)[O-])c(N2CCOCC2)cc1N1CCOCC1)c1nc2ccccc2[nH]1	90	?	.	1.4	9	173	-5
Nc1ccccc1Nc1cc(-c2cccc(Cl)c2)nn1-c1ccccc1	101	i	1.4	0.4	-259	116	6
CCSc1nnc(NC(=O)C2C3C=CC(C3)C2C(=O)O)s1 (configuration not stated)	107	i	1	-3.2	3	138	-1
COc1ccc(/C(N)=N/O)c(OC)c1	88	i	0.89	.	.	.	-1
Cc1nnc(Sc2cc(C(=O)NCCCN(C)Cc3ccccc3)c3ccccc3n2)s1	101	i	0.86	-0.6	-30	112	-3
O=C1/C(=C\c2ccccn2)SC(=S)N1Nc1ncc(C(F)(F)F)cc1Cl	120	i	1	-2.9	19	83	-5
CN1CCN(CC(O)c2ccccc2)CC1 (configuration not stated)	104	i	0.97	-2.4	-46	140	-18
CN(C)/C=C/c1onc(-c2ccccc2Cl)c1C#N	99	.	.	.	0	138	1
CC1CCCC(NC(=O)CCn2c(=O)oc3ccccc32)C1C (configuration not stated)	100	i	0.88	-1.5	-12	108	-1
CC(C)C1OC(c2cccc(NC(=O)c3cccs3)c2)OCC1(C)C (configuration not stated)	100	i	0.93	.	-7	176	-7
COc1cccc(C2C(C#N)=C(N)Oc3cc(C)oc(=O)c32)c1OC (configuration not stated)	86	i	0.79	-1.5	-9	153	-4
O=C(Nc1cc(N2CCOCC2)ncn1)c1ccccc1	103	i	0.96	-0.6	.	.	-1
CC(C)(C)OC(=O)N[C@@H](Cc1ccccc1)C(=O)NCC1CCC(C(=O)O)CC1 (some centres not stated)	97	i	0.83	.	.	.	.
COc1ccc(NC(=O)NCCCN2CCCCC2C)cc1 (configuration not stated)	97	.	.	-3.5	6	202	-18
COc1ccc(C2(C(F)(F)F)NC(=O)N(C)C(=O)N2C)cc1 (configuration not stated)	110	i	1.1	-0.5	27	104	-5

Next results
SMILES	RGS16-Gao	HSV replic up	HSV replic up primary fold	GALR2 agonist	Insulin prom inh	Insulin prom inh cell count	PKD1 inh
COCCCNC(=O)/C=C/c1ccc(OCc2c(F)cccc2Cl)cc1	101	i	1	.	-12	116	2
CCC1(C)Cc2ccccc2-c2nc(NCCCO)n(-c3ccccc3)c(=O)c21 (configuration not stated)	220	i	0.98	-0.4	-44	112	1
CC(=O)Oc1ccc2c(=O)c(-c3ccccc3)c(C)oc2c1	100	i	1	.	.	.	4
Cc1ccc(NC(=S)N/N=C/c2c(C)[nH]c3ccccc23)cc1	129	i	0.69	.	.	.	0
Cc1ccc(-c2csc3ncnc(OCC(=O)NC(=O)NCc4ccco4)c23)cc1	91	i	0.75	-1.3	3	116	-10
Cc1ccc(C)c(-n2c(-c3ccc(Br)cc3)csc2=NC(=O)c2ccccc2F)c1	97	i	0.96	.	.	.	.
Cc1nonc1C1CCCN1Cc1nc(-c2ccc(F)cc2F)oc1C (configuration not stated)	99	i	1	.	.	.	-7
O=S(=O)(O/N=C1\CCCc2ccccc21)c1ccccc1	108	i	1	-4.5	-14	147	1
Cc1ccc(/C=[N+](/[O-])C2SC(=S)N(C)C2(C)C)cc1 (configuration not stated)	-94	i	1.1	0.0	5	82	-9
COc1ccc(N(CC(=O)Nc2ccc3c(c2)OCCO3)S(=O)(=O)c2c(C)nn(C)c2C)cc1	66	.	.	-2.8	.	.	-4
Cc1nc2ccccc2n1C(=O)c1cc(-c2ccc(Br)cc2)nc2ccccc12	103	i	0.93	-2.3	20	103	1
COC(=O)C(C)Sc1nc2c(cnn2-c2ccccc2)c(=O)[nH]1 (configuration not stated)	105	i	0.86	-4.5	.	.	-1

2 entries from above, with two lines to a compound:
The line under a structure holds: RGS16-Gao	HSV replic up	HSV replic up primary fold	GALR2 agonist	Insulin prom inh	Insulin prom inh cell count	PKD1 inh
- CC(=O)Oc1ccc2c(=O)c(-c3ccccc3)c(C)oc2c1
→ 100	i	1	.	.	.	4
- Cc1ccc(NC(=S)N/N=C/c2c(C)[nH]c3ccccc23)cc1
→ 129	i	0.69	.	.	.	0

Fetched one by one from the entries so far:
SMILES	RGS16-Gao	HSV replic up	HSV replic up primary fold	GALR2 agonist	Insulin prom inh	Insulin prom inh cell count	PKD1 inh
O=C(COC(=O)C1CCN(S(=O)(=O)c2cccs2)CC1)Nc1ccccc1Br	97	i	0.98	.	27	108	-1
O=c1c(O)c(-c2ccc(O)cc2O)oc2cc(O)cc(O)c12	96	.	.	-0.1	38	148	-3
CCOC(=O)COc1ccc(S(=O)(=O)NCc2cccnc2)cc1	100	i	0.82	-1.6	50	125	-4
O=C(CC(c1ccccc1)c1cc(Br)ccc1O)N1CCCC1 (configuration not stated)	101	i	1.1	.	0	104	2
CCC1(C)Cc2ccccc2-c2nc(NCCCO)n(-c3ccccc3)c(=O)c21 (configuration not stated)	220	i	0.98	-0.4	-44	112	1
c1ccc2c(-c3nn[nH]n3)cccc2c1	100	i	1	0.6	.	.	7
